Screening results (PubChem BioAssay)
GIV Gai3 FP: GIV-Galpha-i interaction inhibition | Galpha-i3/FITC-GIV peptide fluorescence polarization, 90 min; active compounds read low; scaled: aluminum fluoride 0%, vehicle 100% | percent of control (FP), % (test concentration not listed) | hit rate 0.42% among 210,000;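 active = replicate mean at 85% of control or lower, very high polarization wells dropped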;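 also: lower values mean more displacement of the GIV peptide from Galpha-i3; wells of about 15 µL received 100 nL stock; the first replicate is given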
Target sequence (P08753 whole entry, looked up): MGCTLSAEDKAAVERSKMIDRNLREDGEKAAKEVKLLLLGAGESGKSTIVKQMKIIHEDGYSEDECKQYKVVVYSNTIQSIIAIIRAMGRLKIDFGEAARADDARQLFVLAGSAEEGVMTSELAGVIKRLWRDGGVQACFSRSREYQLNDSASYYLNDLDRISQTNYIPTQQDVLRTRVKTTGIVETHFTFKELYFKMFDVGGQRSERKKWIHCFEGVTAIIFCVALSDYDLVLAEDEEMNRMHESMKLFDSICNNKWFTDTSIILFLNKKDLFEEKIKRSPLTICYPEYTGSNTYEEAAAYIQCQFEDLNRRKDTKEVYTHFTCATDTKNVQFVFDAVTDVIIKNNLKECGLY
* marks the source's active call; other numbers are inactive results. The list is partial. The share of hits here may be higher or lower than overall.

SMILES | GIV Gai3 FP
Cc1c(Cl)cccc1NC(=O)CSC1=C(C#N)C(c2ccc(F)cc2)CC(=O)N1 (stereo not drawn) | 102.5
COc1ccccc1C1CC(c2ccc(Br)cc2)=NN1S(=O)(=O)c1ccc(C)cc1 (stereo not drawn) | 113.8
Cc1cc2c(cc1S(=O)(=O)N1CCc3ccccc3C1)OCC(=O)N2Cc1noc(C2CC2)n1 | 99.3
O=C(C1CCN(c2ncccc2-c2nc(-c3ccccc3)no2)CC1)N1CCN(c2ccccc2)CC1 | 105.1
COc1ccc2c(c1)c(=O)c1ccccc1n2CC(=O)Nc1ccc(C)c(Cl)c1 | 106.6
O=C(c1ccsc1)N1CCC(Oc2cc(N3CCCC3)ncn2)C1 (stereo not drawn) | 100.7
COc1cc(/C=C2\N=C(c3cc(OC)c(OC)c(OC)c3)OC2=O)cc(Br)c1OC(C)=O | 113.8
CCOC(=O)C1=C(O)/C(=C/c2cccc(O)c2)SC1=Nc1ccccc1 | 102.4
COc1cccc(NC(=O)CSc2nnc3[nH]c(=O)c(C)nn23)c1 | 101.9
COc1ccc(C(=O)Nc2ccc(OC)c(Cl)c2)c(OC)n1 | 108.5
Cn1c2c(c(=O)[nH]c1=O)C(c1ccc(Cl)cc1Cl)C1=C(N2)c2ccccc2C1=O (stereo not drawn) | 104.8
Cc1nn(-c2ccc3nnc(C)n3n2)c(C)c1CCC(=O)Nc1cc(F)ccc1F | 100.6
CC(=O)OCC1OC(n2ccc(=O)[nH]c2=S)C(OC(C)=O)C1OC(C)=O (stereo not drawn) | 107.5
CC1(C)c2ccccc2N2CCC(=O)NC21/C=C/c1ccc(Br)cc1 (stereo not drawn) | 105.9
CCOC(=O)c1c(C)n(C)c2cc(CN(C)C)c(O)c(S(=O)(=O)c3ccccc3)c12 | 102.7
CCCS(=O)(=O)c1c(S(=O)(=O)CCC)c2ccccn2c1C(=O)N/N=C/c1c[nH]c2ccccc12 | 110.0
CCOc1ccc(C2C(C#N)=C(N)N(c3ccc(OC)cc3)C3=C2C(=O)CC(C)(C)C3)cc1 (stereo not drawn) | 117.1
Cc1ccc(Cn2cc(C(=O)Nc3ccc(Br)cc3)ccc2=O)cc1 | 109.0
CCN1CCCc2cc(C(=O)N3CCC(C)CC3)sc21 | 128.6
Cc1[nH]c(-c2nnc(C3CCC3)o2)c(C)c1S(=O)(=O)N(C)Cc1ccco1 | 106.9
O=C(CCC(=O)N1CCCN(c2nc3cccnc3s2)CC1)NCCc1c[nH]c2ccccc12 | 102.4
CCOC(=O)C1C(=O)NC(SCc2ccccc2)=C(C#N)C1c1ccccc1[N+](=O)[O-] (stereo not drawn) | 111.0
COc1ccc(-n2ncc3c(N4CCN(c5cccc(Cl)c5)CC4)ncnc32)cc1 | 105.3
Cc1nc(N2CCN(C)CC2)c2c(C)c(C(=O)Nc3ccc(F)cc3Cl)sc2n1 | 99.0
Cc1ccc(N=C(NOCc2ccccc2Cl)c2nonc2N)cc1 | 111.8
COc1ccccc1NC(C)(C)c1nnnn1-c1ccccc1C | 103.7
CC1=C(C(=O)OCCc2ccccc2)C(c2ccccc2Cl)CC(=O)N1 (stereo not drawn) | 104.8
CCOC(=O)c1c(C)n(-c2ccccc2)c2cc(Br)c(O)c(CN3CCOCC3)c12 | 104.7
O=C(COc1ncnc2onc(-c3ccc(F)cc3)c12)N1CCc2ccccc21 | 102.2
COc1ccccc1-n1c(CNC(=O)c2ccco2)nnc1SCC(=O)N1CCc2ccccc21 | 105.4

Taken from the entries so far (2 entries):
SMILES | GIV Gai3 FP
Cc1ccc(Cn2cc(C(=O)Nc3ccc(Br)cc3)ccc2=O)cc1 | 109.0
CCN1CCCc2cc(C(=O)N3CCC(C)CC3)sc21 | 128.6

The list continues:
SMILES | GIV Gai3 FP
N#C/C(=C1/NC2(CCCCC2)Cc2ccccc21)c1ccccc1 | 103.9
O=C1CC(c2ccc(OCc3ccccc3)cc2)c2cnn(-c3nc4ccccc4s3)c2N1 (stereo not drawn) | 94.1
COC(=O)c1cn(-c2ccc(C)cc2)c(=O)c2ccccc12 | 102.8
CCCCN1/C(=C/C=C/c2n(CCCC)c3cc(Cl)c(Cl)cc3[n+]2C)N(C)c2cc(Cl)c(Cl)cc21 | 37.1*
Cc1ccc(S(=O)(=O)N(CC(O)CN(CC(C)C)CC(C)C)c2cccc(C)c2)cc1 (stereo not drawn) | 106.7
Cc1ccc(S(=O)(=O)N2c3ccccc3C3NC2c2ccccc2N3S(=O)(=O)c2ccc(C)cc2)cc1 | 124.4
CN(c1ccc(Br)cc1)S(=O)(=O)c1ccc2[nH]cc(C(=O)N3CCc4ccccc43)c(=O)c2c1 | 105.8
Cc1ccc(C2=Nc3cccnc3N(CC(=O)NCc3ccccc3Br)C(=O)C2)cc1C | 100.7
COc1ccc(NC(=O)c2sc3ncnc(N4CCN(c5ccccn5)CC4)c3c2C)cc1OC | 97.1
COc1ccc(-c2cn(/N=C/c3ccc(Cl)cc3Cl)c(N(C(C)=O)C(C)=O)n2)cc1 | 105.1
CCn1cc(C2CC(=O)Nc3c2c(C)nn3-c2nc3ccccc3[nH]2)cn1 (stereo not drawn) | 102.3
O=C(Cn1nc2c(SC3CCCCC3)nccn2c1=O)Nc1ccc(Br)cc1 | 106.4
CCn1cc(S(=O)(=O)N2CCCn3nc(-c4cccc(C(F)(F)F)c4)cc3C2)cn1 | 98.2
O=c1c2nnc(SCc3cccc(Cl)c3)n2ccn1-c1cccc(F)c1 | 108.0
O=C1Nc2ccccc2OC1C(=O)NC1CC1 (stereo not drawn) | 100.6
Cc1ccc(NC(=O)Nc2cccc(OCc3cc(=O)n4ccccc4n3)c2)cc1Cl | 103.1
CC(=NCC(C)C)c1c(C)[nH]n(-c2ccc(Br)cc2Br)c1=O | 100.5
COc1ccccc1NC(=O)C1=C(C)NC(SCC(=O)Nc2cccc(Br)c2)=C(C#N)C1c1ccccc1 (stereo not drawn) | 107.6
CC1(C)SC(=S)N(CCN2CCOCC2)C1N(O)C(=O)Nc1ccc(Cl)cc1 (stereo not drawn) | 97.2
CCCCOc1ccc(C2CC(=O)Nc3c2c(C)nn3-c2ccc3nncn3n2)cc1OCC (stereo not drawn) | 98.1
CCOc1ccc(CN2CCCC2c2cc(C(C)C)no2)cc1OCC (stereo not drawn) | 103.3
Cc1ccc(C(=O)Nc2ncnc3oc(-c4ccccc4)c(-c4ccccc4)c23)cc1 | 111.2
COc1ccc(-n2ccc(=O)c(-c3nc(-c4ccc(C(C)(C)C)cc4)no3)n2)cc1 | 97.2
N#Cc1ccc2c(c1)nc1c3ccc(C(=O)O)c4c(C(=O)O)ccc(c(=O)n21)c43 | 105.6
CCCN(CCC)CCCNc1ncnc2onc(-c3cc(F)cc(F)c3)c12 | 108.2
Cc1ccc(S(=O)(=O)Nc2cc3c4c(oc3c3ccccc23)CCC(C(C)(C)C)C4)c(C)c1 (stereo not drawn) | 105.0
N#CC1(C#N)[C@H](c2ccc(Cl)cc2Cl)[C@@H](C(=O)C23CC4CC(CC(C4)C2)C3)N2c3ccccc3C=C[C@@H]21 | 112.7
CC(C)CCNC(=O)c1ccc2c(c1)[nH]c(=S)n1c3ccccc3nc21 | 119.3
Cc1ccc(-c2noc(-c3nnn(Cc4nc(-c5ccccc5)oc4C)c3C)n2)cc1 | 104.2
CC(C)CNC(=O)/C(=C/c1cn(-c2ccccc2)nc1-c1ccc(Cl)cc1)NC(=O)c1ccccc1 | 104.8
O=C(NCCCN1CCOCC1)C1CCCN(c2nn3c(=O)c4c(nc3s2)CCCC4)C1 (stereo not drawn) | 99.9
Cc1cccc(C2C3=C(CCCC3=O)N=C3c4ccccc4C(=O)C32)c1 (stereo not drawn) | 105.8
COc1cc(CN2CCCC2c2cc(C(C)C)on2)ccc1OCC(C)C (stereo not drawn) | 98.8
O=C(CN1C(=O)/C(=C2\SC(N3CCOCC3)=NC2=O)c2ccccc21)Nc1cccc(C(F)(F)F)c1 | 107.7
CC1CCN(Cc2nc(-c3ccc(N4CCSCC4)nc3)no2)CC1 | 98.0
CCOC(=O)c1cc(C)nc2c1c(=O)n(Cc1cc(C)ccc1C)c(=O)n2C | 104.4
c1cc(N2CCCC2)ncc1-c1noc(CN2CCC3(CC2)OCCO3)n1 | 105.1
O=C(CSc1nnc2ccc(C(=O)NCc3ccccc3)cn12)NCc1ccc(F)cc1 | 101.0
CCN1CCN(C(=O)c2ccc(Cn3c(=S)[nH]c4ccc(Br)cc4c3=O)cc2)CC1 | 113.0
CCOC(=O)c1c2n(c3cc(Br)c(OC)cc13)CCN(c1ccc(F)cc1)C2 | 109.3
Clc1cc(Cl)c2c(c1)C=C1CCCCC1(N1CCCCC1)O2 (stereo not drawn) | 116.8
COc1ccc(C(=O)NC(c2ccc(OC)cc2)c2cc(Cl)c3cccnc3c2O)cc1 (stereo not drawn) | 114.1
CCc1cc(C2CCCN2C(=O)Cn2nc(C(F)(F)F)c3c2CCCC3)on1 (stereo not drawn) | 101.0
O=C(CN1CCN(C(=O)c2cc3c(s2)CN(C2CCCC2)C3)CC1)N1CCCC1 | 103.1
COc1ccc(Cl)cc1S(=O)(=O)Nc1ccc2nncn2n1 | 106.7

Arranged by molecular weight (lowest first): part of the list above
SMILES | GIV Gai3 FP
Clc1cc(Cl)c2c(c1)C=C1CCCCC1(N1CCCCC1)O2 (stereo not drawn) | 116.8
COc1ccc(Cl)cc1S(=O)(=O)Nc1ccc2nncn2n1 | 106.7
CC1CCN(Cc2nc(-c3ccc(N4CCSCC4)nc3)no2)CC1 | 98.0
CC(C)CCNC(=O)c1ccc2c(c1)[nH]c(=S)n1c3ccccc3nc21 | 119.3
c1cc(N2CCCC2)ncc1-c1noc(CN2CCC3(CC2)OCCO3)n1 | 105.1
COc1cc(CN2CCCC2c2cc(C(C)C)on2)ccc1OCC(C)C (stereo not drawn) | 98.8
CCOC(=O)c1cc(C)nc2c1c(=O)n(Cc1cc(C)ccc1C)c(=O)n2C | 104.4
CCc1cc(C2CCCN2C(=O)Cn2nc(C(F)(F)F)c3c2CCCC3)on1 (stereo not drawn) | 101.0
Cc1ccc(-c2noc(-c3nnn(Cc4nc(-c5ccccc5)oc4C)c3C)n2)cc1 | 104.2
CCOC(=O)c1c2n(c3cc(Br)c(OC)cc13)CCN(c1ccc(F)cc1)C2 | 109.3
COc1ccc(C(=O)NC(c2ccc(OC)cc2)c2cc(Cl)c3cccnc3c2O)cc1 (stereo not drawn) | 114.1
O=C(CSc1nnc2ccc(C(=O)NCc3ccccc3)cn12)NCc1ccc(F)cc1 | 101.0
O=C(NCCCN1CCOCC1)C1CCCN(c2nn3c(=O)c4c(nc3s2)CCCC4)C1 (stereo not drawn) | 99.9
CCN1CCN(C(=O)c2ccc(Cn3c(=S)[nH]c4ccc(Br)cc4c3=O)cc2)CC1 | 113.0
O=C(CN1C(=O)/C(=C2\SC(N3CCOCC3)=NC2=O)c2ccccc21)Nc1cccc(C(F)(F)F)c1 | 107.7

Following part:
SMILES | GIV Gai3 FP
COc1ccc(NC(=O)N2CCOc3ccc(COCc4ccc(Cl)cc4)cc3C2)c(OC)c1 | 98.9
COC(=O)C1=C(C(=O)OC)SC2(S1)C(C(=O)OC)=C(C(=O)OC)SC1=C2c2cc(C)ccc2N(C)C1(C)C | 106.0
CCN(c1ccc(F)cc1)S(=O)(=O)c1ccc2[nH]cc(C(=O)N3CCc4ccccc4C3)c(=O)c2c1 | 101.3
CCSc1nccc2c1ccn2CC(=O)NCc1ccc(OC)cc1OC | 98.8
Cc1cc(I)ccc1NC(=O)C1CC(O)CN1C(=O)Oc1ccccc1 (stereo not drawn) | 105.2
O=C(CSc1nc2cc(C(=O)NCCCN3CCOCC3)ccc2c(=O)n1CC1CCCO1)c1ccc(F)cc1 (stereo not drawn) | 117.5
CCCNC(=O)c1ccc(-c2nc3cc(NS(=O)(=O)c4c(C)nn(C)c4C)ccc3n2C)cc1 | 97.3
O=C(CNS(=O)(=O)c1cc(-c2noc(C3CCC3)n2)cs1)Nc1ccc(Cl)cc1F | 110.4
COc1ccc(-c2c[n+](CC(=O)c3ccc(Cl)cc3)c3n2CCCCC3)cc1 | 110.4
O=C(Nc1ccccc1)C1CC(O)CN1C(=O)Oc1ccccc1 (stereo not drawn) | 107.6
CCc1onc(C)c1C1CCCN1Cc1ccc(OC)c(CN2CCOCC2)c1 (stereo not drawn) | 113.8
CS/C(Nc1ccccc1C)=C(\C#N)C(=O)NCc1cccs1 | 108.5
CC(=O)N1CCC(NC(=O)NC2CCCCC2)C1 (stereo not drawn) | 101.7
CCCSc1nnc2n(Cc3ccc(OC)cc3)c(=O)c3c(n12)-c1ccccc1CC31CCCCC1 | 109.3
Cc1cc(C)nc(NS(=O)(=O)c2ccc(Nc3ncnc(N)c3[N+](=O)[O-])cc2)n1 | 103.9
CC1=NN(c2ccccc2)C(=O)C1C(=O)c1ccc([N+](=O)[O-])cc1 (stereo not drawn) | 111.2
CCOc1cccc(CN2C(=O)c3ccccc3CC2(C)C(=O)NCc2ccc(Cl)cc2)c1 (stereo not drawn) | 111.2
O=C(CCn1cnc2cc(-c3noc(C4CCC4)n3)ccc21)N1CCCC1 | 103.0
CCC(=O)N1CCc2cc(N3CC(C(=O)NCc4cccs4)CC3=O)ccc21 (stereo not drawn) | 106.5
CCc1ccc(S(=O)(=O)c2cnc(N3CCCC(C)C3)nc2N)cc1 (stereo not drawn) | 97.8
CCOC(=O)c1c(NC(=O)C(C)Sc2nnc(CNC(=O)c3ccco3)n2C)sc2c1CCCC2 (stereo not drawn) | 106.4
O=S(=O)(c1ccc2c(c1)-c1oncc1CO2)N1CCN(c2ccc(F)cc2)CC1 | 99.2
COc1ccc(C2(O)CN(c3cccc(C)c3C)C3=[N+]2CCCS3)cc1 (stereo not drawn) | 106.9
Cc1ccc(C2C3=C(CC(C)(C)CC3=O)Nc3ccccc3N2C(=O)NCC2CCCO2)cc1 (stereo not drawn) | 97.8
Cc1cccc(S(=O)(=O)NC2CCN(c3ncnc4c3CCC4)C2)c1 (stereo not drawn) | 100.3
CNC(=O)C1CN(C(=O)NC2CCCCC2)CC12CCCC2 (stereo not drawn) | 99.7
CCCCCCc1cc2c3c(c(=O)oc2cc1OCC(=O)c1ccc(Cl)cc1)CCCC3 | 107.9
CCSc1nc2ccc(NS(=O)(=O)c3ccc(C)c(C)c3)cc2s1 | 104.7
O=C(c1cccc(Nc2ncc(-c3cccc(F)c3)cn2)c1)N1CCCC1 | 99.6
Cc1c2c(nc3c(C(=O)NCc4ccccc4Cl)cnn13)CCCC2 | 104.0
